rRNA inh HTS: inhibitors of bacterial rRNA selective over humanized ribosomes | E. coli WT GFP vs humanized-ribosome RFP mutants, fluorescence, 24 h; stronger effect = lower value; DMSO median 0, no signal -100 | GFP signal change (wild-type ribosome), % (concentration not given with the values) | 350,000 compounds, 1.6% hits;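 active = significant combined selectivity score with lowered wild-type GFP, culture density cut under 30%, mutant RFP and density less affected; inactive = any of these conditions unmet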; note: one replicate is shown; some compounds called inactive have numbers as strong as hits
ALR inh: inhibitors of human sulfhydryl oxidase ALR | P55789 | purified ALR, DTT oxidation, H2O2 HRP-luminol luminescence | inhibition, % (concentration not given with the values) | 290,000 compounds, 3.8% hits | AID 485317;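 active = mean and each replicate at 75% or more; inconclusive = only one of the two met; inactive = neither met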;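 note: stock transfer was 7.5 nL into about 7.5 µL; 0% = neutral wells and 100% = wells with inactivated enzyme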
Target sequence (P55789 whole entry, looked up): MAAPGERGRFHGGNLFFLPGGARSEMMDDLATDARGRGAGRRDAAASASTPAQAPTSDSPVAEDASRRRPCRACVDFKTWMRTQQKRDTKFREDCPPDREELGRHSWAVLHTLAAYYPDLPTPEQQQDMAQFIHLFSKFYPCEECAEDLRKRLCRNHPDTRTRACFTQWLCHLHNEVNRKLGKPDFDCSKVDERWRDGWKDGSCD
HNF4A DNA FP: change in binding of human HNF4 alpha to DNA; activity change, % at 10 µM; HNF4a-FITC DNA binding, fluorescence polarization, 1 h; 360,000 compounds, 0.3% hits; P41235; in the data active = activity change above about 30%, passing the limit was not always enough;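 note: controls were the assay level and a saturating level of protein; the project sought stronger binding though the title names inhibitors; some compounds called inactive have numbers as strong as hits; positive values seem to mean higher polarization but the record does not say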
E coli growth: E. coli growth inhibition | OD600 absorbance (test concentration not listed) | 330,000 compounds, 0.21% hits | Escherichia coli growth, OD600, 23 h; stronger effect = lower value;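 active = OD600 absorbance below the run mean of sample wells minus 3.6 SD, in any replicate, cut at about 0.56 in these data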;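 note: stock transfer was 300 nL into about 60 µL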
Vif TR-FRET: inhibitors of Vif binding to APOBEC3G peptide, primary screen, biochemical, TR-FRET, GST-Vif 1-94, biotin-A3G peptide, dose response retest (AID 1117319) | TR-FRET GST-Vif / biotin-A3G peptide binding; higher % means a stronger effect; test concentration not given here; strong numbers were not always called active | one-dose inhibition, %; IC50 in µM for titrated hits | 260,000 compounds, 0.57% hits;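 active = above the screen mean plus three standard deviations and confirmed in dose response; inconclusive = results disagree or hit not tested in dose response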;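 note: Vif residues 1-94 fused to GST binding biotinylated APOBEC3G peptide 110-148; 0% = full assay without inhibitor and 100% = GST in place of GST-Vif; retest series ran down from 100 µM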
AF4-AF9 inh: blocks AF4 peptide binding to human AF9 | P42568 | AlphaScreen, biotin-AF4 peptide binding to FLAG-AF9 | inhibition, % at 10 µM | 350,000 compounds, 0.47% hits | AID 651704;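 active = every replicate reaching a set inhibition limit, whatever the replicate mean, cut at about 25% in these data; inconclusive = mean inhibition reaches that limit but some replicates miss it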;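 note: 0% = plate neutral control median and 100% = total signal loss; the record names both 10 and 1 µM as test concentration; the first replicate is given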
Target sequence (P42568 whole entry, looked up): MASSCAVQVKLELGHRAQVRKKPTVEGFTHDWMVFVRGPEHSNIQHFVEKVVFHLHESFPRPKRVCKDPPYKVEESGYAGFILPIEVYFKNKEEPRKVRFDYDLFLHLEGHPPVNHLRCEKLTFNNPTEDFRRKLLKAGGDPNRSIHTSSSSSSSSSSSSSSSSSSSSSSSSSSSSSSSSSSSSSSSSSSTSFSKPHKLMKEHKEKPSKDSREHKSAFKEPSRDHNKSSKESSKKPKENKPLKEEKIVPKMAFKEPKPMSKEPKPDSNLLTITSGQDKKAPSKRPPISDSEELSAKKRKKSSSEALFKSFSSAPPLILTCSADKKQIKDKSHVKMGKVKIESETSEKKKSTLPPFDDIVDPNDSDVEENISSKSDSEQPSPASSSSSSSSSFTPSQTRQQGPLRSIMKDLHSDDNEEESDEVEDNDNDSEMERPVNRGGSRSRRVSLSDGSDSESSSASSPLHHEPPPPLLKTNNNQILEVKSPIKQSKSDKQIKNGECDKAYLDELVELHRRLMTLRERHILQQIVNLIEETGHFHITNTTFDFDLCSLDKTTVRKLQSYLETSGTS
FGF22 binding: binders of recombinant human FGF22 by thermal shift | Q9HCT0 | SYPRO orange fluorescence; percent of sucrose octasulfate shift, DMSO zero | calls only at 9.99 µM | 340,000 compounds, 1.5% hits;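 active = melting point raised past a set limit in the mean and every replicate; inconclusive = no clear call; three in four hits are not shown here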
Target sequence (Q9HCT0 whole entry, looked up): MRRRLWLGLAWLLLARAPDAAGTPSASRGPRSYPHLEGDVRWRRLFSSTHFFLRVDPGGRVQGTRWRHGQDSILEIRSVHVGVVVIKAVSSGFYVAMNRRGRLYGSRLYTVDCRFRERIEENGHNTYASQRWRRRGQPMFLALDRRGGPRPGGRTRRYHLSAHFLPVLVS
rRNA inh HTS OD600: further read-out of rRNA inh HTS, marked with its call; OD600 change, %; measured here: OD600 growth;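 optical density of the mix in the first replicate; 0 = DMSO median and -100 = no signal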
rRNA inh HTS RFP: further read-out of rRNA inh HTS, marked with its call; RFP signal change, %; measured here: RFP humanized mutant strains;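 first replicate; 0 = DMSO median and -100 = no signal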
* marks the source's active call; other numbers are inactive results; i = inactive; u = inconclusive; x = no result given; + = active, no number. These rows are one share of the data; rates above refer to the full screens.

SMILES | rRNA inh HTS | rRNA inh HTS OD600 | rRNA inh HTS RFP | ALR inh | HNF4A DNA FP | E coli growth | Vif TR-FRET | AF4-AF9 inh | FGF22 binding
COc1ccccc1OCC(O)Cn1c(Br)nc2c1c(=O)[nH]c(=O)n2C (stereo not drawn) | x | x | x | -2.2 | -5.0 | 0.814 | 21.7% | x | x
CCc1ccc(NC(=O)N(CCCOC(C)C)C2CCN(C(C)=O)CC2)cc1 | x | x | x | -4.7 | -0.3 | 0.682 | 17.4% | x | x
CC(C)OCCCNC(=O)CN1C(=O)CSc2ccc(S(=O)(=O)N3CCCCC3)cc21 | 7.6 | 10.2 | -0.4 | -14.7 | 1.0 | 0.66 | x | 0.9 | i
O=C(Cc1cn2ccsc2n1)Nc1cccc2cnccc12 | x | x | x | -22.1 | 0.5 | 0.749 | -1.7% | x | x
O=C(Nc1ccccc1N1CCN(c2ccccc2)CC1)C12CC3CC(CC(C3)C1)C2 | x | x | x | x | 1.4 | 0.709 | -5.5% | x | x
Cc1cc(N2CCOCC2)n2ncc(-c3ccccc3)c2n1 | x | x | x | 12.5 | 29.0 | 0.72 | 5.9% | x | x
CCOC(=O)c1cn(Cc2ccccc2)c(C(=O)OC(C)(C)C)c1O | -6.0 | -14.3 | -8.6 | 3.4 | -0.4 | 0.667 | x | x | i
Cc1ccc(OCCC(=O)OC(C)C(=O)Nc2ccc(Cl)cn2)cc1 (stereo not drawn) | -4.9 | -34.0 | -1.2 | 14.3 | -0.2 | 0.641 | 28.9% | -2.9 | i
COc1ccc2cc(C(c3nnnn3C3CCCC3)N3CCOCC3)c3nnnn3c2c1 (stereo not drawn) | -30.1 | -36.4 | -2.6 | -4.8 | -2.7 | 0.654 | -3.1% | -4.6 | i
COC(=O)c1cccc(Nc2nc(-c3cccnc3)nc3ccccc23)c1 | 15.9 | 1.1 | 2.0 | -9.6 | -1.8 | 0.62 | -4.5% | 3.8 | i
CCOC(=O)C1(C)CCCN(C(=O)c2ccc3c(c2)CCO3)C1 (stereo not drawn) | 5.6 | 17.6 | 0.5 | x | -2.5 | x | x | 2.2 | i
CNC(=O)c1ccc(C)c(NC(=O)C2=C(C)OCCS2)c1 | 13.1 | 7.0 | 9.6 | -1.4 | -5.1 | 0.692 | 0.9% | 1.0 | i
Cc1ccc(S(=O)(=O)N(C)CC(=O)NNC(=O)CCS(=O)(=O)c2ccccc2)cc1 | 4.4 | -4.1 | 2.6 | x | -1.9 | 0.706 | x | 0.2 | i
CCOc1ccc(NC(=O)C2C3CC/C=C\CCC32)cc1 (stereo not drawn) | 5.4 | 5.9 | -3.5 | -2.1 | 1.3 | 0.696 | -1.4% | -3.1 | i
O=C(NCCc1ccccc1)c1ccc(-n2cnnn2)cc1 | 7.3 | 11.3 | -1.5 | 0.7 | -2.0 | 0.636 | 10.7% | -14.0 | i
COC(=O)C[C@@H]1CC[C@H]2[C@H](COc3ccc(NC(=O)Nc4cccc(F)c4)cc3C(=O)N2C)O1 | -6.2 | -7.3 | 1.8 | x | x | x | x | 1.8 | i
COc1ccc(OC)c2[nH]c(=O)c(CCNS(=O)(=O)c3ccc(F)cc3)cc12 | -0.5 | 4.9 | 0.3 | -2.1 | 2.0 | 0.709 | x | -0.8 | i
C[C@@H]1CCCCO[C@@H](CN(C)C(=O)Nc2cccc3ccccc23)[C@H](C)CN([C@H](C)CO)C(=O)c2cc(NC(=O)NC3CCCCC3)ccc2O1 | -0.3 | -0.7 | -3.2 | x | x | x | x | 1.1 | i
COc1ccc(NC(=O)c2cc3c(Cl)nc4ccccc4c3s2)cc1OC | -1.2 | -2.7 | -9.5 | 0.8 | -1.4 | 0.678 | 24.0% | -2.2 | i
NCCc1nnc(SCC(=O)Nc2ccc(Br)cc2)o1 | 2.6 | 6.5 | -3.1 | 98.2* | 1.6 | 0.654 | x | 0.3 | i
C=CCNC(=O)c1onc(CSc2ccc(Cl)cc2)c1C(=O)O | 3.9 | -17.5 | 5.1 | 39.3 | 2.5 | 0.677 | 1.6% | -6.1 | i
O=c1ccc(-c2nc3ccccc3n2Cc2ccc(Cl)cc2)c[nH]1 | -10.5 | -7.5 | -2.7 | x | 1.2 | 0.635 | -1.7% | 2.3 | i
Nc1nonc1-n1nnc(C(=O)N/N=C/c2ccc3c(c2)OCO3)c1-c1ccccc1 | 2.7 | 5.6 | -1.2 | x | -3.3 | x | x | 4.3 | i
Cc1cccc(C(=O)NCC(=O)N2CC(=O)Nc3ccccc32)c1 | -1.8 | -8.1 | 8.3 | x | -2.9 | 0.626 | 2.0% | -0.9 | i
CN(Cc1ccccc1C(F)(F)F)C(=O)C1CCC(=O)N(CC2CCCCC2)C1 (stereo not drawn) | -28.6 | -70.3 | -2.2 | x | 1.3 | x | -0.4% | 1.4 | i
CCNC(=O)C[C@H]1CC[C@@H]2[C@@H](COc3ccc(NC(=O)C4CCOCC4)cc3C(=O)N2C)O1 | 2.1 | 4.7 | 1.5 | x | x | x | x | -1.2 | i
CCCCn1nnnc1C(c1ccccc1)N1CCN(c2ccccc2OC)CC1 (stereo not drawn) | -23.8 | -33.4 | -3.5 | x | 3.2 | x | x | -1.0 | i
c1cn(CC2(Cn3ccnc3)COC2)cn1 | x | x | x | -13.5 | -3.1 | 0.69 | 12.1% | x | x
O=C(CNC(=O)c1ccco1)OCc1c(F)cccc1Cl | x | x | x | 3.7 | -0.3 | x | u | x | x
COc1cccc(C(=O)Nc2ccc(S(=O)(=O)N3CCCCC3)cc2)c1OC | -12.2 | -10.6 | -3.3 | 1.5 | -8.5 | 0.706 | 13.6% | -0.2 | i
O=C(C[C@H]1C[C@H]2c3cc(NC(=O)CC4CC4)ccc3O[C@H]2[C@H](CO)O1)NCC1CC1 | 0.4 | -3.4 | -1.3 | x | x | x | x | -1.7 | i
CC(NC(=O)c1cccc(N(C)C)c1)c1ccc(-n2ccnc2)cc1 (stereo not drawn) | -5.4 | -15.7 | 3.7 | 97.7* | 2.2 | 0.693 | -2.7% | -0.1 | i
Cc1ccc(/C([O-])=C(/C(=S)Nc2ccc(SC(F)F)cc2)[n+]2ccccc2)cc1[N+](=O)[O-] | -18.9 | -18.6 | -1.8 | -6.5 | 1.9 | 0.651 | 7.5% | 3.1 | i
CN(c1ccccc1C(=O)NC1CC2CCC1C2)S(=O)(=O)c1ccccc1 (stereo not drawn) | 12.0 | 7.9 | 0.0 | -2.7 | -4.9 | 0.681 | -2.2% | -1.2 | i
COc1cc(/C=N/Nc2nc(Nc3ccccc3)nc(-n3nc(C)cc3C)n2)cc(OC)c1OC | -0.5 | 0.0 | 0.0 | 1.2 | -1.1 | x | x | 2.4 | i
O=C(CN1CCN(S(=O)(=O)c2ccccc2)CC1)Nc1ccccc1C(=O)c1ccccc1 | -4.5 | -11.4 | -4.8 | -3.5 | 0.5 | 0.727 | x | 5.8 | i
COc1ccc(-c2nc3ccc(Br)cn3c2CC(C)(C)C)cc1OC | -3.1 | -17.6 | -5.7 | x | 3.5 | x | x | 1.6 | i
Cc1cccc(C)c1NC(=O)Cn1c(CN2CCCCC2)nc2ccccc2c1=O | x | x | x | 0.2 | -0.5 | 0.693 | 4.3% | x | x
C=C(C)COc1ccc2c(C)c(CC(=O)OC)c(=O)oc2c1C | x | x | x | -2.9 | 0.7 | 0.71 | -5.9% | x | x
COc1cccc(NC(=O)C2CC2(c2cccc(OC)c2)c2cccc(OC)c2)c1 (stereo not drawn) | -11.6 | -17.1 | -6.2 | -4.1 | 1.9 | 0.702 | x | 2.1 | i
O=C(O)CC1NC(=S)N(Cc2ccccc2)C1=O (stereo not drawn) | 9.0 | 12.9 | -0.7 | x | 0.0 | x | 2.0% | -2.2 | i
CCc1ccccc1NC(=O)CN1CCN(C(=O)C2CCN(C(=O)/C=C/c3ccccc3)CC2)CC1 | -1.1 | -1.1 | 3.1 | 1.7 | -6.0 | 0.67 | x | -0.7 | i
CCCCCOP(=O)(OCCCCC)C1(NS(=O)(=O)c2ccccc2)C=CC(=O)c2ccccc21 (stereo not drawn) | x | x | x | 23.8 | -1.6 | 0.749 | 13.3% | x | x
COCCOC(=O)C1=C(C)N=C2SCCC(=O)N2C1c1cccc(Br)c1 (stereo not drawn) | x | x | x | 4.4 | 0.3 | 0.715 | 2.7% | x | x
CCCCOc1ccccc1C1C(C(=O)OC)=C(C)N(C)C(C)=C1C(=O)OC | x | x | x | -26.7 | 1.0 | 0.658 | -3.2% | x | x
CCOC(=O)C1=C(C)Nc2nc(C)nn2C1c1ccc(OCC)c(OC)c1 (stereo not drawn) | 11.4 | 8.9 | -0.4 | x | -6.0 | 0.728 | -1.7% | -0.2 | i
COc1ccc(NC(=O)CC(C)C)c(OC)c1 | x | x | x | -23.1 | -1.3 | 0.766 | 2.5% | x | x
Cc1ccccc1Cn1c(CN2CCc3ccccc3C2)nc2c1c(=O)n(C)c(=O)n2C | x | x | x | -15.4 | -2.2 | 0.683 | 20.4% | x | x
CC(C)(C)NC(=O)C1CCN(S(=O)(=O)c2ccc(Br)cc2)CC1 | x | x | x | -5.9 | 1.2 | 0.732 | -6.8% | x | x
CC(O)C(C(=O)OCc1ccc([N+](=O)[O-])cc1)N1C(=O)c2ccccc2C1=O (stereo not drawn) | x | x | x | -21.3 | 6.8 | x | 3.7% | x | x
Going on with the list:
SMILES | rRNA inh HTS | rRNA inh HTS OD600 | rRNA inh HTS RFP | ALR inh | HNF4A DNA FP | E coli growth | Vif TR-FRET | AF4-AF9 inh | FGF22 binding
Cc1cc(C)c(NC(=S)N(CCc2ccncc2)C(C)C)c(C)c1 | -1.4 | 3.2 | -0.4 | -23.2 | -0.1 | 0.656 | -2.9% | 0.0 | i
Cc1nn(Cc2ccccc2)c(C)c1C(=O)N1CCN(CC(=O)Nc2ccccc2Cl)CC1 | x | x | x | -4.8 | -9.0 | 0.691 | x | 0.6 | i
CO[C@@H]1CN(C)C(=O)c2ccc(NS(C)(=O)=O)cc2OC[C@H](C)N(CC2CCCCC2)C[C@H]1C | -5.2 | -8.9 | 4.1 | x | x | x | x | -12.8 | i
O=C(c1cc2ccccc2c(=O)o1)N1CCCCCC1 | 4.7 | 18.4 | -1.7 | -6.7 | 2.5 | 0.679 | -10.5% | -1.1 | i
COc1ccc(Cc2ccccc2C(=O)O)cc1 | 3.4 | 5.5 | -2.6 | x | 1.1 | 0.666 | 2.2% | -3.6 | i
Cc1ccc(C(=O)NNC(=O)CSc2nnc3ccccn23)cc1 | 2.0 | 2.8 | -1.6 | -4.4 | -1.0 | 0.692 | -8.9% | 1.8 | i
O=C1CC(=O)Nc2cc(S(=O)(=O)Nc3ccc(Cl)c(C(F)(F)F)c3)ccc2N1 | 0.0 | -1.5 | -4.1 | -2.1 | -2.8 | 0.697 | x | -3.4 | i
C[N+]1(CCN2C(=O)C3CC=C(Cl)CC3C2=O)CCOCC1 (stereo not drawn) | x | x | x | -6.1 | -1.4 | 0.755 | 20.2% | x | x
C[C@H]1CN([C@@H](C)CO)S(=O)(=O)c2ccc(C#Cc3ccncc3)cc2O[C@H]1CN(C)C(=O)Nc1ccc2c(c1)OCO2 | -8.1 | -2.6 | 0.3 | x | x | x | x | 9.1 | +
CCOC(=O)c1c(NC(=O)C(=O)N/N=C/c2ccc(O)c(OC)c2)sc2c1CCCCC2 | x | x | x | -5.5 | 0.0 | x | 1.5% | x | x
COc1ccc(N2CC(O)=C(c3n(C)c4ccccc4[n+]3C)C2=N)cc1 | x | x | x | x | -4.8 | 0.753 | 3.9% | x | x

Screens as filed in PubChem.
